# Compound activity from PubChem BioAssay.
# CDC25B-CDK2 inh: human CDC25B-CDK2/CyclinA binding inhibition | z-score (concentration not given with the values) | 94,000 tested, 0.72% active | HTRF CDC25B-CDK2/CyclinA binding, anti-His/anti-Flag; active compounds read high | P30305+P24941;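 further: score is relative to mean and SD of negative controls; strong numbers were not always called active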
# TAR Tat displ: HIV-1 TAR-Tat binding disruption | HIV-1 TAR RNA, Tat peptide displacement FRET; active compounds read high | z-score (no concentration beside the values) | 100,000 tested, 0.6% active | AID 1259389;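 further: score is relative to mean and SD of negative controls; some compounds called inactive have numbers as strong as hits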
# * marks the source's active call; other numbers are inactive results; nt = no result given.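 How the source made its calls: active means z-score from 3 up in half or more of its runs; inactive means the rest.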
# Below each compound: CDC25B-CDK2 inh	TAR Tat displ
CCOCCOC(=O)C1=C(C)NC2=C(C(=O)C(C(=O)OC)C(C)C2)C1c1coc2ccccc2c1=O (configuration not stated)
  -1.5	0.72
CCN(CC)S(=O)(=O)c1ccc2c(c1)CC(C(=O)NCCC1=CCCCC1)N2C(C)=O (configuration not stated)
  nt	1.9
CC(C)S(=O)(=O)C/C(N)=N\O
  -0.7	nt
CC1(C)N=C(N)N=C(N)N1c1ccc(F)cc1
  -1.5	nt
Brc1ccc(-c2nnc(SCc3ccccc3)o2)cc1
  -2.7	2.3
C=CCNC(=O)Nc1ccc2nc3c4ccccc4c4ccccc4c3nc2c1
  21*	nt
CCOC(=O)CSc1c(C(=O)OCC)c(=O)n(-c2ccccc2)c(=S)n1-c1ccccc1
  -0.74	nt
O=C(NCCC1=CCCCC1)c1[nH]nc2c1COc1ccccc1-2
  nt	0.88
Clc1ccc(Nc2ncnc3c2cnn3-c2ccccc2)cc1
  -0.74	nt
CN(Cc1ccccc1)C(=O)C(C(=O)c1ccc(F)cc1)n1cc(Cl)ccc1=O (configuration not stated)
  3.5	-0.9
CC1=C(C(=O)OCc2ccccc2)C(c2ccsc2)NC(=O)N1C (configuration not stated)
  0.39	nt
Cc1nc(-c2noc(-c3ccc(C(F)(F)F)cc3)n2)cs1
  -2.3	nt
NC(=O)c1nn2c(c1Cl)NC(c1ccc(Cl)cc1)CC2C(F)(F)F (configuration not stated)
  0.29	1.2
COc1ccc(-c2nc3ccc(NS(C)(=O)=O)cc3o2)cc1
  -1.2	2.8
CCOC(=O)CN1C(=O)C(CC)Oc2ccc(C)cc21 (configuration not stated)
  -1.3	nt
O=S(=O)(Nc1cccc(-c2ccc(N3CCOCC3)nn2)c1)c1cccc(Cl)c1
  nt	0.97
CNS(=O)(=O)c1ccc2oc3ccc(S(=O)(=O)NC)cc3c2c1
  0.22	nt
C=CCNC(=O)c1cc2c(=O)n3ccccc3nc2s1
  -0.64	nt
CCOC(=O)c1nc(Nc2ccccc2OCC)c2ccccc2n1
  -0.66	0.26
CCCS(=O)(=O)c1nc(S(=O)(=O)c2ccc(C)cc2)c(N2CCC(O)CC2)s1
  -0.9	1

# Next part
# Below each compound: CDC25B-CDK2 inh	TAR Tat displ
Cn1c(=O)oc2cc(S(=O)(=O)NCCN3CCc4ccccc4C3)ccc21
  -0.56	nt
CN1C(=O)Cc2cc(S(=O)(=O)NC3CCCC3)ccc21
  nt	2.5
CC1=C(C(=O)Nc2ccc(C)cc2C)C(c2ccc(F)cc2)n2nc(C(=O)OC(C)C)nc2N1 (configuration not stated)
  -0.47	nt
Cc1ccc(NCC(O)Cn2c(C)c(C)c3ccccc32)c(C)c1 (configuration not stated)
  -2.4	nt
Cc1onc(-c2ccccc2)c1C(=O)N1CCN(C(=O)C2COc3ccccc3O2)CC1 (configuration not stated)
  -2.8	nt
Cc1ccc(NC(=O)CCc2c(C)nc3c(-c4ccccc4)c(C)nn3c2C)nc1
  -0.03	nt
CC(C)(CC(=O)O)CC(=O)N1CCN(c2ncccn2)CC1
  -2.4	nt
Cc1cccc(N2CCN(CCCNc3nn4nnnc4c4ccccc34)CC2C)c1 (configuration not stated)
  -1.8	1.9
CN1CCN(C(=O)c2oc3ccccc3c2NC(=O)COc2ccccc2)CC1
  nt	0.43
CC1=C(C(=O)Nc2ccc(CC(=O)NCc3ccc4c(c3)OCO4)cc2)SCCO1
  nt	-0.51
CCCCC(=O)N1CCNc2ccccc2C1
  0.12	0.95
O=C(Cn1ncc2c(=O)oc3ccccc3c21)N1CCN(c2ccc(F)cc2)CC1
  -1.8	nt
Cc1ccc(-c2cc(C(=O)N(Cc3cccs3)C3CCS(=O)(=O)C3)no2)cc1F (configuration not stated)
  -1.4	1.8
COCCNC(=O)c1cnc(N2CCOCC2)nc1
  nt	1.8
O=C1C(c2ccccc2)C(c2cccnc2)NC(c2cccnc2)C1c1ccccc1 (configuration not stated)
  -1.5	nt
Cc1cc(C)c(-c2n[nH]c3c2C(c2ccc(Br)cc2)N(CCO)C3=O)c(O)c1 (configuration not stated)
  -2.8	-0.26
CC(C)c1c(O)nc(SCCN2CCOCC2)[nH]c1=O
  0.6	0.17
CC1CN(C(=O)Nc2ccc3c(c2)OCCO3)c2ccccc2S1 (configuration not stated)
  nt	-0.14
CCCCc1c(C)nc2nc(NCc3ccc(C)cc3)[nH]n2c1=O
  -0.44	0.48
O=c1cc(CO)oc(C(Nc2nccs2)c2ccc(F)cc2)c1O (configuration not stated)
  0.35	nt

# Individual results from the results shown:
# Result for CC(C)(CC(=O)O)CC(=O)N1CCN(c2ncccn2)CC1 in CDC25B-CDK2 inh: -2.4
# Result for CN(Cc1ccccc1)C(=O)C(C(=O)c1ccc(F)cc1)n1cc(Cl)ccc1=O (configuration not stated) in CDC25B-CDK2 inh: 3.5
# Result for CNS(=O)(=O)c1ccc2oc3ccc(S(=O)(=O)NC)cc3c2c1 in CDC25B-CDK2 inh: 0.22
# Result for CCOCCOC(=O)C1=C(C)NC2=C(C(=O)C(C(=O)OC)C(C)C2)C1c1coc2ccccc2c1=O (configuration not stated) in CDC25B-CDK2 inh: -1.5
# Result for CCOC(=O)c1nc(Nc2ccccc2OCC)c2ccccc2n1 in TAR Tat displ: 0.26

# (continued)
# Below each compound: CDC25B-CDK2 inh	TAR Tat displ
CCOc1ccc(-c2cn3nc(C4CCCCC4)sc3n2)cc1
  -2.4	0.13
CC(=O)NCCNC(=O)c1cccn2c(=O)c3c4c(sc3nc12)CCCC4
  nt	0.5
NC(=O)CSc1ncc2c(n1)-c1ccccc1N(Cc1ccc(Cl)cc1)S2(=O)=O
  nt	-0.79
COC(=O)NC(O)C(=O)c1ccccc1 (configuration not stated)
  0.88	1.3
CSc1nnc2c(n1)[nH]c1ccccc12
  -1.1	nt
CCC1Sc2ccc(S(=O)(=O)CCC(=O)NCc3ccco3)cc2NC1=O (configuration not stated)
  nt	1.2
COc1c2c(nc3ccccc13)OC(C(C)(O)COC(C)=O)C2 (configuration not stated)
  -1.3	1.6
O=C1N(Cc2ccc(Cl)cc2)c2ccccc2S(=O)(=O)N1Cc1ccccc1
  nt	1.2
COCCCNC(=O)CN(C)c1nn2c(=O)cc(C)nc2s1
  -0.28	3.9
O=C(Nc1ccc2nc(SCC(=O)N3CCCc4ccccc43)sc2c1)c1ccco1
  2.4	-0.05
COCCCNC(=S)N/N=C/c1ccc(-c2ccc(OC)cc2)s1
  1.3	nt
O=C(NCc1cccc(Br)c1)c1cnc2sc(N3CCCC3)nn2c1=O
  nt	0.91
Cc1nc2nc(C(F)(F)F)[nH]n2c(=O)c1Cc1ccc(Cl)cc1
  -1.2	-1.4
CN(CC(=O)Nc1ccc(F)c(F)c1)S(=O)(=O)c1ccc2c(c1)CCC(=O)N2
  0.08	nt
CC1Cc2cc(S(=O)(=O)Nc3ccc(F)cc3)ccc2N1C(=O)C1CCC1 (configuration not stated)
  nt	1.4
O=C(Nc1cccc(C(=O)N2CCCC2)c1)C1=CSCCO1
  nt	1.3
O=C(Cn1c(-c2ccccc2)c[n+]2ccsc12)c1ccc(Br)cc1
  -0.28	0.91
Cc1ccc2c(c1)c1c(n2CC(O)Cn2c(C)nc3ccccc32)C(=O)CCC1 (configuration not stated)
  -0.54	0.21
CSc1nc(NCc2ccccn2)cc(-c2ccccc2)n1
  -0.24	0.32
CCCCNc1nc(Oc2ccc(=O)n(C)n2)nc(N2CCOCC2)n1
  -1.8	1.3

# Later entries.
# Below each compound: CDC25B-CDK2 inh	TAR Tat displ
CC(C)C(NS(=O)(=O)c1cccs1)C(=O)NCCc1cccs1 (configuration not stated)
  nt	2.1
CCCc1nn2c(=O)cc(CSc3ccccc3N)nc2s1
  nt	0.05
CCc1nn2c(=O)cc(CSc3nc4ccccc4[nH]3)nc2s1
  -0.85	-0.55
c1cc(-c2ccsc2)[nH]n1
  -2.2	nt
CCn1c(SCC(=O)NC2CCCCC2)nc2c(c1=O)SCC2
  -1.1	0.77
CCN1C(=O)C2(c3ccccc31)C(C(=O)Nc1cc(C)cc(C)c1)CC1CSCN12 (configuration not stated)
  nt	0.19
O=c1ncc(F)c[nH]1
  nt	0.26
COc1ccc2c(c1)CC(NC(=O)Nc1ccc(OC)c(OC)c1)CO2 (configuration not stated)
  nt	1.3
O=c1c2cccnc2n(Cc2ccccc2F)c(=O)n1Cc1ccc(F)cc1
  -1.2	0.38
Cc1ccccc1OCCn1cnc2c(N)ncnc21
  0.71	0.17
Cc1ccc(N2CC(c3nnc(NC(=O)Nc4ccc(Cl)cc4)o3)CC2=O)cc1 (configuration not stated)
  nt	2.6
Clc1cc2c(c3ncccc13)OCN(CCc1ccccc1)C2
  -3.5	nt
CC(C(=O)Nc1cc(F)ccc1F)N1Cc2ccccc2C1=O (configuration not stated)
  nt	0.2
COc1ccc(S(=O)(=O)Nc2cc(C)on2)cc1OC
  -1.9	0.39
CC1CC(=O)Nc2cc(S(=O)(=O)NCCc3cccs3)ccc2S1 (configuration not stated)
  nt	1.4
COc1ccccc1CN1CCN(Cc2ccc3c(c2)OCO3)CC1
  -0.06	4
CN1C(=O)c2ccccc2Sc2ccc(NC(=O)NCCc3cccs3)cc21
  1.1	-0.7
O=C(Nc1ccc2c(c1)C(=O)c1ccccc1C2=O)c1ccc(-c2cccc(Cl)c2)o1
  -4.8	nt
CCOC(=O)c1cn(C)c(=O)c2ccccc12
  -1.6	-1.3
O=C(COc1ccc(Cl)cc1)NCC(c1ccco1)S(=O)(=O)c1cccs1 (configuration not stated)
  nt	0.94

# (list continues)
# Below each compound: CDC25B-CDK2 inh	TAR Tat displ
O=C1CC(c2cccc(Cl)c2)c2c(n[nH]c2-c2ccccc2)N1 (configuration not stated)
  1.4	1.5
Cc1oc2cc3c(C(=O)N4CCCCC4)c(C)oc3cc2c1C(=O)N1CCCCC1
  -0.81	1.3
Cc1ccc(S(=O)(=O)N2CCCC(c3nc(-c4ccccc4C)no3)C2)cc1 (configuration not stated)
  nt	2.8
CCOC(=O)c1sc(NC(=O)CC)c(C(=O)OCC)c1C
  -0.99	2.8
Cc1ccc(S(=O)(=O)Nc2ccc3[nH]cc(Cl)c3c2)cc1
  -0.77	nt
O=C(C1CCN(c2ncnc3c2nc2n3CCCCC2)CC1)N1CCN(c2ncccn2)CC1
  nt	-0.49
Cc1cccc(NC(=O)CS(=O)(=O)c2cccc3nsnc23)n1
  nt	1.4
Cc1nc2c(c(C)nn2C)c(C)c1CCC(=O)NCCCOC(C)C
  -1	-0.6
CCCc1oc2cc(OCC(=O)OC)c(CC)cc2c(=O)c1-c1ccc2c(c1)OCCCO2
  -0.82	nt
Cn1c(=O)c2c(-c3cccc(Br)c3)n(-c3cccc(O)c3)cc2n(C)c1=O
  -1.3	0.7
CCCOc1ccc(N2C(=O)CC(SCCN)C2=O)cc1 (configuration not stated)
  1.1	0.14
N#CC1=C(N)Oc2n[nH]c(-c3ccccc3)c2C1c1cccs1 (configuration not stated)
  -3.2	-0.5
Cc1ccc2nc(-c3cccc(NC(=O)c4oc5ccccc5c4C)c3)oc2c1
  -2.3	nt
CCc1nnc(/N=C/c2cc(-c3ccccc3)sc2O)s1
  -0.25	0.34
CCCCSc1nc2n(n1)C(c1cccc(Cl)c1)C1=C(CCCC1=O)N2 (configuration not stated)
  -2.9	1.1
CNc1nc(OC)nc(-n2cnc(SCC(=O)OC)n2)n1
  -1.8	1.3
CCOc1ccccc1-n1nnc(-c2nc(-c3ccc(C)cc3)no2)c1N
  nt	0.17
Cc1ccc(C2CCN(C(=O)Nc3ccc(C)c(C)c3)C2)cc1 (configuration not stated)
  nt	1.7
COC(=O)C1=C(C)NC2=C(C(=O)CC(C)(C)C2)C1c1cc(OC)ccc1OC (configuration not stated)
  0.07	0.14
C=CCn1c(NCc2ccccc2O)nc2ccccc21
  -0.77	-0.14

# In a second layout: 2 of the compounds above
Compound	CDC25B-CDK2 inh	TAR Tat displ
Cc1cccc(NC(=O)CS(=O)(=O)c2cccc3nsnc23)n1	nt	1.4
Cc1nc2c(c(C)nn2C)c(C)c1CCC(=O)NCCCOC(C)C	-1	-0.6

# Following part.
# Below each compound: CDC25B-CDK2 inh	TAR Tat displ
CC(Oc1ccccc1F)C(=O)Nc1onc2c1CCCC2 (configuration not stated)
  0.24	1.4
Fc1ccc(-c2nnc3sc(COc4ccc(Br)cc4)nn23)cc1
  -1.6	-6.6
Cn1cnc(S(=O)(=O)N2CC(OCc3ccccc3F)C2)c1
  nt	0.1
Cc1nn(C)cc1CNC(=O)CCC(=O)O
  -1.6	-0.47
O=C(COc1ccc(Br)cc1)Nc1ccc2c(c1)NC(=O)CO2
  -1.1	1.3
CC(C)(C)C(=O)N1CC(=O)Nc2ccccc21
  -1.1	-0.7
COCc1c(Br)c(C)nc2sc3c(=O)n(C(C)(C)C)nnc3c12
  -0.5	-1.6
CN(C(=O)c1cc2ccc3cccnc3c2[nH]1)c1ccc(F)cc1
  nt	2.1
Cc1cccc(N2C(=O)N(c3ccc(C)c(C)c3)C3CS(=O)(=O)CC32)c1 (configuration not stated)
  -0.64	-0.78
COCCOC(=O)C1=C(C)NC(=O)NC1c1ccccc1Br (configuration not stated)
  -0.01	nt
O=C(Nc1ncc(Cc2ccc(F)cc2)s1)C1=Cc2cc(Br)ccc2OC=C1
  -2	0.44
CN(C)Cc1c(O)ccc2occ(C(=O)c3ccc(F)cc3)c12
  -0.88	0.6
N#Cc1c(=O)n(O)c2ccccc2[n+]1[O-]
  -3.1	nt
COc1ccc(-c2nn3c(C(F)(F)F)nnc3s2)cc1
  -0.84	0.74
CCc1c(C)nc2ncnn2c1Nc1ccc(Br)c(C)c1
  -1.5	1.1
Fc1cccc(CSc2nncn3c2cc2occc23)c1
  nt	8.3
Cc1nn(CCCC(=O)NC2CCCC(C)C2C)c(=O)c2cc3occc3n12 (configuration not stated)
  -0.39	0.23
Cc1ccc2oc(-c3cc(NC(=O)c4ccc5c(c4)OCCO5)ccc3O)nc2c1
  -1.2	nt

# Molecules shown so far with a cyano group:
# Below each compound: CDC25B-CDK2 inh	TAR Tat displ
N#CC1=C(N)Oc2n[nH]c(-c3ccccc3)c2C1c1cccs1 (configuration not stated)
  -3.2	-0.5
N#Cc1c(=O)n(O)c2ccccc2[n+]1[O-]
  -3.1	nt
